PK Bst: Pyruvate Kinase. partly purified Bacillus stearothermophilus pyruvate kinase, luminescence ATP production; ribose 5-phosphate activator present at AC10. Potency, µM. 51,000 tested, 1.2% active. AID 361, 2006; in the data active means potency below about 11 µM; inconclusive means mostly about 12 µM to 25 µM; inactive means weaker than that;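 the screen sought inhibitors and activators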;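 also: potency is read from the fitted curve at half-maximal effect; scaled between full activation by ribose 5 phosphate and full inhibition by luteolin; about four in five hits inhibit and the cells do not say which; series up to 57 µM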
TsaE inh: qHTS Assay for Inhibitors of YjeE; 71,000 tested, 0.05% active; AID 605, 2007; Potency, µM; purified YjeE, fluorescence polarisation of a bound ADP probe; active = well fitted falling curve; inconclusive = weaker or top-dose-only fall, or a rising curve; inactive = flat or poorly fitted curve;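 also: top concentration of the series not given in the record; excess ADP was the control for the full effect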
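Fluorescence polarization of a BODIPY Texas Red–ADP probe (2 uM) bound to purified YjeE (10 uM) was read after 15 min room-temperature incubation with compounds. Loss of polarization marks inhibitors; ADP serves as titrated control.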
The depositor's hits bear a star; i = inactive; · = no result given. This is a subset. The share of hits here may be higher or lower than overall.

SMILES | PK Bst | TsaE inh
COc1cccc(NC(=O)C2C3C=CC4(O3)C2C(=O)N(C2CC2)C4C(=O)NC2CCCCC2C)c1 (stereo not given) | >57 | i
OC1(c2ccccc2)C/C(=N\n2cnnc2)C=C1c1ccccc1 (stereo not given) | >57 | i
Cc1c(-c2ccc(O)cc2)nn(-c2ccc(O)cc2)c1-c1ccc(OCCN2CCCCC2)cc1 | · | i
COc1ccc(S(=O)(=O)N(C)c2ccc(C(=O)N3CCC(C(N)=O)CC3)cc2)cc1 | >57 | i
COCCOC(=O)c1c(C)n(C)c2ccc(OC(=O)c3cccs3)cc12 | i | i
CN1CCN(c2ccc(Cl)cc2NS(=O)(=O)c2ccccc2Cl)CC1 | >57 | i
COc1ccc(C2c3sc(=O)[nH]c3SC3C(=O)N(c4ccccc4)C(=O)C32)cc1 (stereo not given) | · | i
COC(=O)c1cc(NS(=O)(=O)c2ccc3c(c2)CCC(=O)N3)cc(C(=O)OC)c1 | >57 | i
COC(=O)c1cc(OC)c(OC)cc1NC(=O)c1cnccn1 | >57 | i
COCCn1nnnc1C(c1cc2cccc(C)c2[nH]c1=O)N1CCN(c2ccccc2F)CC1 (stereo not given) | >57 | i
Cn1c(=O)[nH]c(=O)c2c1nc(CN1CCN(c3cccc(Cl)c3)CC1)n2CCN1CCOCC1 | >57 | i
CC(=O)c1cc2c(cc1NC(=O)CCc1ccccc1)OCO2 | >57 | i
CC1S/C(=C(\C#N)C(N)=O)N(c2ccc(F)cc2)C1=O (stereo not given) | >57 | i
CC1(C)CC(=O)C(C=NCCc2ccc(S(N)(=O)=O)cc2)=C(O)C1 | >57 | i
CCCC1Cc2c(sc3nc(SC)nc(N)c23)CO1 (stereo not given) | >25.6 | ·
COc1ccc(C2OC(=O)CC2C(=O)NC2CCCCCC2)cc1OC (stereo not given) | >57 | i
COc1cc(C(=O)NCc2ccco2)cc(OC)c1OC | >57 | i
COC(=O)c1ccccc1NC(=O)Cn1cnc2cc(C)c(C)cc21 | · | i
C=CCn1c(SCC(=O)NC23CC4CC(CC(C4)C2)C3)nc(O)cc1=O | >11.4 | ·
CC(C)CN1CC2(CCN(C(=O)c3cccc(F)c3)CC2)C1 | · | i
O=C(NCc1ccco1)c1csc2c1CCCCC2 | >57 | i
CC1CC(C)CN(CCCNC(=O)C2CCN(S(=O)(=O)N3CCCCC3)CC2)C1 (stereo not given) | >57 | i
CC1CCCC(NC(=O)c2ccc(CNc3c(N4CCCC4)c(=O)c3=O)cc2)C1C (stereo not given) | · | i
Cc1ccc2c(CC(=O)OC3CCOC3=O)coc2c1 (stereo not given) | >57 | i
O=C1C2CCCN2C(c2ccccc2)N1c1cccc(Cl)c1 (stereo not given) | · | i
CC1CC(C)CN(CC(C)(C)NS(=O)(=O)c2ccccc2)C1 (stereo not given) | >57 | i
Cc1ccc(-n2ncc(C(=O)N3CCc4ccccc4C3)c2NC(=O)c2ccco2)cc1C | >57 | i
O=C(CN1CCN(c2ccc(Cl)cc2)CC1)Nc1ccc(F)cc1 | >57 | i
CCc1cccc(C)c1N(C(=O)Cn1c(=O)[nH]c2ccccc21)C(C)COC (stereo not given) | >25.6 | ·
O=C(CN1CCN(CCOCCO)CC1)N1c2ccccc2Sc2ccc(Cl)cc21 | >57 | i
Cc1ccc(Nc2cc(C)nn2-c2nc(C)cc(=O)[nH]2)cc1 | · | i
COc1ccc(C2C(C(=O)N3CCCCC3)c3ccccc3C(=O)N2C)cc1 (stereo not given) | >57 | i
Cc1noc(C)c1S(=O)(=O)Nc1ccc(C(=O)O)cc1 | >57 | i
CCc1c(C)nc(N)n2c(SCC(=O)N3CCCC(C)C3)nnc12 (stereo not given) | >57 | i
O=C(CSc1nnc(-c2ccco2)n1-c1ccccc1)N1CCN(C(=O)c2ccco2)CC1 | >57 | i
CN1C(=O)c2oc3ccccc3c(=O)c2C1c1ccncc1 (stereo not given) | >57 | i
CCN1C(=O)c2ccccc2Sc2ccc(C(=O)NCCN3CCOCC3)cc21 | · | i
COC(=O)c1[nH]c2ccc(C)cc2c1NC(=O)C1=COCCO1 | >57 | i
Cc1cc(-c2csc(NC(=O)c3ccc(=O)n(C)n3)n2)c(C)n1CC1CCCO1 (stereo not given) | 9.1* | i
O=c1c2cc(N3CCOCC3)ccc2[nH]c(=S)n1Cc1ccco1 | >57 | i

Marked active in PK Bst, among the entries above:
SMILES | PK Bst | TsaE inh
Cc1cc(-c2csc(NC(=O)c3ccc(=O)n(C)n3)n2)c(C)n1CC1CCCO1 (stereo not given) | 9.1* | i

In the list so far, six have a furan ring, fused or not:
SMILES | PK Bst | TsaE inh
COc1cc(C(=O)NCc2ccco2)cc(OC)c1OC | >57 | i
O=C(NCc1ccco1)c1csc2c1CCCCC2 | >57 | i
Cc1ccc2c(CC(=O)OC3CCOC3=O)coc2c1 (stereo not given) | >57 | i
Cc1ccc(-n2ncc(C(=O)N3CCc4ccccc4C3)c2NC(=O)c2ccco2)cc1C | >57 | i
O=C(CSc1nnc(-c2ccco2)n1-c1ccccc1)N1CCN(C(=O)c2ccco2)CC1 | >57 | i
O=c1c2cc(N3CCOCC3)ccc2[nH]c(=S)n1Cc1ccco1 | >57 | i

Further results follow.
SMILES | PK Bst | TsaE inh
O=C(CCN1C(=O)COc2ccccc21)NCCN1CCN(c2cccc(Cl)c2)CC1 | >57 | i
N#CCCN(Cc1cccnc1)C(=O)c1ccc(S(=O)(=O)N2CCOCC2)cc1 | >57 | i
CN(C)C(=O)c1ccc(-c2nccc(Nc3ccc(F)cc3)n2)cc1 | · | i
CCCc1cc(C(=O)N2CCN(C(c3ccccc3)c3ccccc3)CC2)no1 | · | i
Cc1csc(NC(=O)c2nc(-c3ccccc3)n(-c3ccccc3)n2)n1 | >57 | i
O=[N+]([O-])c1ccccc1Nc1ccccc1 | · | i
NC(=O)c1cn(-c2ccccc2)nc1-c1cccnc1 | >57 | i
O=C1NC2CCCCC2NC1CC(=O)N1CCN(c2ccccc2)CC1 (stereo not given) | >57 | i
Cc1csc(NC(=O)C2CCCCC2C(=O)O)n1 (stereo not given) | · | i
CCn1c(=O)c2cc(C(=O)NCc3cccs3)sc2c2ccccc21 | · | i
COc1ccc(CCNC(=O)CN(c2ccccc2OC)S(C)(=O)=O)cc1OC | · | i
O/N=C(\Cc1cscn1)c1ccc(O)cc1O | >57 | i
O=C(Cn1cnc2ccccc2c1=O)Nc1ccc2c(c1)CCC2 | >57 | i
O=C1CN(C(=O)c2ccccc2F)c2ccccc2N1 | >57 | i
COC(=O)c1c(NC(=O)CSc2nnc(-c3cccnc3)n2Cc2ccco2)sc(C)c1C | >57 | i
O=C(Nc1sc2c(c1C(=O)NC1CCCCC1)CCC2)c1ccco1 | >57 | i
O=C(CCS(=O)(=O)c1cccc2nonc12)NCCc1ccccc1 | >57 | i
CCCn1[nH]cc(SC)c(=O)c1=O | · | i
O=C(c1cc2c(s1)-c1ccccc1OC2)N1CCN(c2ccccn2)CC1 | · | i
Cc1cc2cc(CN(Cc3ccc4c(c3)OCO4)C(=O)c3cnccn3)c3nnnn3c2cc1C | >57 | i
CCc1ccc(S(=O)(=O)c2n[nH]n3c2nc(=O)c2ccccc23)cc1 | >57 | i
N#Cc1nc(-c2ccco2)oc1N1CCCC1 | >57 | i
CCOC(=O)c1ccccc1NS(=O)(=O)c1ccc(S(=O)(=O)N2CCCC2)cc1 | >57 | i
Cc1cccc2cc(CN(Cc3nnnn3C3CCCC3)C3CCCCC3)c(=O)[nH]c12 | >57 | i
O=C(NCCN1CCOCC1)c1cccs1 | >57 | i
COc1cc(S(=O)(=O)NCC2CCCO2)c(OC)cc1Cl (stereo not given) | >57 | i
CCOc1ccc(N=C2C(=O)N(CN3CCOCC3)c3ccccc32)cc1 | >25.6 | ·
COC(=O)c1[nH]c(C)c(/C(O)=C2\C(=O)C(=O)N(CCN(C)C)C2c2ccc(OC)cc2)c1C (stereo not given) | >57 | i
CC(=O)NCCc1cc2cc(C)c(C)cc2[nH]c1=O | >57 | i
CCOC(=O)N1CCC(N2C(=O)c3ccccc3C2Nc2ccc3c(C)cc(=O)oc3c2)CC1 (stereo not given) | · | i
CNC(=O)c1nnc(Cc2ccc(F)cc2)o1 | · | i
CCCn1cc(S(=O)(=O)CC(=O)Nc2ccc(OCC)cc2)c2ccccc21 | >57 | i
CCOC(=O)c1sc(NC(=O)CSc2ncn[nH]2)c(C#N)c1C | >57 | i
COCCNC(=O)c1cc2c(-c3ccc(Cl)cc3)nn(C)c2s1 | · | i
O=C(CN(C(=O)CCC(=O)Nc1ccccn1)c1ccc2c(c1)OCCO2)NCCc1ccccc1 | >57 | i
Cc1cccc(Cn2c(N3CCCCC3C)nc3c2c(=O)[nH]c(=O)n3C)c1 (stereo not given) | · | i
CN(C)S(=O)(=O)c1ccc(C(=O)Nc2nnc(Cc3ccccc3)s2)cc1 | >57 | i
CCOC(=O)c1c(C)c(C(=O)Nc2ccc3c(c2)OCO3)c(C)n1C | >57 | i
COc1ccc(CC(=O)NCc2cccs2)cc1 | >57 | i
COc1cc2c(CCNC(C)=O)c[nH]c2cc1O | · | i
COc1ccccc1NC(=O)COC(=O)CNC(=O)c1ccc(OC)c(OC)c1 | >57 | i
CCN1CCCC1CNC(=O)Cn1cccc1C(=O)c1ccccc1C (stereo not given) | >57 | i
O=C(c1ccc(NS(=O)(=O)c2cccs2)cc1)N1CCCCC1 | >57 | i
O=C(CSc1nnc2scc(-c3ccccc3)n12)N1CCCc2ccccc21 | >57 | i
CCOc1ccccc1C1CC(c2ccccc2)Nc2nc(N)nn21 (stereo not given) | · | i
Cc1c(C(=O)O)oc2ccc(S(=O)(=O)NCCC3=CCCCC3)cc12 | >57 | i
COCc1nnc(SCC(=O)NCc2ccccc2)n1-c1ccccc1 | >57 | i
CCCCCCn1c(CN2CCN(C(=O)OCC)CC2)nc2c1c(=O)n(C)c(=O)n2C | >57 | i
Cc1ccc(-c2nc(CSCC(=O)NCc3cccnc3)c(C)o2)cc1 | >57 | i
Cc1c(C(=O)NCc2cccnc2)oc2ccc(S(=O)(=O)N3CCCCC3)cc12 | >57 | i
Cc1ccccc1-n1nnnc1SCc1csc(-c2ccccc2)n1 | >57 | i
CC(=O)c1cc(C#N)c(SCC(=O)C(C)(C)C)nc1C | >25.6 | ·
O=C(COC(=O)c1cc(=O)[nH]c2ccccc12)NC(=O)NC1CCCCC1 | >57 | i
CCOC(=O)Cc1csc(NC(=O)c2ccc(S(=O)(=O)N3CCCC3)cc2)n1 | >57 | i
Cc1nc2ccc(S(=O)(=O)N(C)CC(=O)N3CCc4ccccc4C3)cc2s1 | >57 | i
Cc1ccc2c(CSc3nnc(C4CC4)n3N)cc(=O)oc2c1C | >57 | i
Cc1ccc(C(=O)Nc2nncs2)cc1S(=O)(=O)N1CCOCC1 | >57 | i
COC(=O)C(C)Sc1nc2c(c(=O)[nH]c(=O)n2C)n1CCCc1ccccc1 (stereo not given) | >57 | i
COc1cc(-c2nnc(CSc3nnc4nc(C)cc(C)n34)o2)cc(OC)c1OC | >57 | i
COc1ccc(C(=O)N2CCN(c3nnnn3-c3ccccc3)CC2)cc1OC | >57 | i

More entries:
SMILES | PK Bst | TsaE inh
COc1ccc(Nc2cc(C)nc(N3CCOCC3)n2)cc1 | 1.52* | i
O=C(NCc1ccco1)c1ccccc1NC(=O)C1CC(=O)N(c2ccc(Cl)cc2)C1 (stereo not given) | >57 | i
CC(C)=CC(=O)N1CCCc2ccccc21 | >57 | i
Cc1nnc(C)c2c(C)n(Cc3ccc4c(c3)OCO4)c(C)c12 | >57 | i
O=C(CCN1CCCCC1)Nc1ccc(Br)cc1 | >57 | i
Cc1nn(-c2ccccc2)cc1/C=N/O | · | i
CC(=O)N1CCN(c2ccc(NCc3ccc(C)s3)cc2)CC1 | · | i
O=C(OCCO)c1cc(Cl)c(C(=O)OCCO)cc1Cl | · | i
COc1ccc(-n2nnc3c(=O)n(C/C=C/c4ccccc4)cnc32)cc1 | >57 | i
COc1ccc(CNC(=O)C(OC(C)=O)c2ccccn2)cc1 (stereo not given) | >57 | i
CN1CCN(S(=O)(=O)c2ccc(NC(=O)C3CCCO3)cc2)CC1 (stereo not given) | >57 | i
O=C(COc1ccc(S(=O)(=O)N2CCc3ccccc32)cc1Cl)NCc1ccccn1 | >57 | i
O=C(NCCN1C(=O)C2C3C=CC(C3)C2C1=O)Nc1ccccc1O (stereo not given) | · | i
Cc1ccc(-n2c(C)cc(C(=O)OCC(=O)N(C)C3CCS(=O)(=O)C3)c2C)cc1 (stereo not given) | >57 | i
Cc1onc(-c2ccccc2)c1C(N)=O | >57 | i
Cc1ccc(S(=O)(=O)N2CCOCC(=O)NCCOCCNC(=O)COCC2)cc1 | >57 | i
O=C(Oc1ccc(Cl)c2cccnc12)N1CCCCC1 | · | i
CC(C)C(c1nnnn1Cc1ccc(F)cc1)N1CCN(Cc2ccc3c(c2)OCO3)CC1 (stereo not given) | >57 | i
CCOc1c(C)cc2[nH]c(CCC(=O)O)nc2c1C | >25.6 | ·
C=CCn1nnc2sc3c(c2c1=O)CCC(C)C3 (stereo not given) | >57 | i
Cc1cc(CNC(=O)c2cc(Br)ccc2Cl)nn1C | >57 | i
O=C(Cn1c(C(=O)N2CCc3ccccc3C2)cc2sccc21)c1ccccc1 | >57 | i
Cc1nnc(NC2CCCCC2)[nH]c1=O | >57 | i
